PMP22 txn: PMP22 gene transcription modulation; S16 Pmp22-F2sN Schwann cells (luciferase reporters placed in the Pmp22 gene), FLuc/NLuc coincidence luminescence, 24 h; Potency, µM (series often up to 57.5 µM), for the others: at the highest dose activity change, negative = inhibition, usual class: inhibitors; 43,000 compounds, 2% hits; active = clear falling dose curves in both reporters; inconclusive = both reporters move, but less clearly or upward; inactive = either reporter flat; the % is the NLuc reporter signal; also: % is scaled to controls: 0 for no effect and ±100 for the full control effect; some results filed as inactive show a strong effect at the top dose
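qHTS, 1536-well. Cells seeded, compounds added by pin tool, 24 h 37C. Nano-Glo reagent 1 (lysis/FLuc), 10 min RT, read; Stop&Glo, 10 min RT, read NLuc.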
HTT prom inh: HTT promoter inhibition | Potency, µM (doses to about 57.5 µM), for the others: at the highest dose activity change, negative = inhibition, hits mostly inhibitors | 48,000 compounds, 0.93% hits | HEK293 HTT promoter firefly luciferase reporter (activity 0% = vehicle and -100% = no light), 24 h; active = well fitted inhibition curve with a large enough effect; inconclusive = small, poorly fitted or top-dose-only effect; inactive = no such curve, though single readings can be large or run the other way; also: nearly all actives have a fitted effect of over 50% in size
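HEK293 Fluc reporter, 2,500 cells/well, 24 h pre-culture; cpds up to 57.5 uM final, 24 h 37 degrees C; Dual-Glo, 10 min RT; normalized vehicle = 0%, zero RLU = -100%.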
* hit, by the source's call; u = inconclusive; x = no result given; & = joins results of further samples; [ ] = dose if it differs, or a comment. Potency is read from the fitted curve at half-maximal effect.

The line under a structure holds: PMP22 txn	HTT prom inh
- CCOc1ccc(Nc2nc3c(S(=O)(=O)c4ccc(C(C)C)cc4)nnn3c3ccsc23)cc1
  -26.4%	-5.0%
- CCCS(=O)(=O)c1ncc(Cl)c(C(=O)N2CCN(c3ccc(OC)cc3)CC2)n1
  5.97µM*	u
- COc1ccc(/C=C/C(=O)Nc2nc(-c3cccs3)ns2)cc1OC
  -82.7%	u
- CCc1ccccc1Nc1nn2c(=O)c3ccc(C(=O)NCc4ccccc4OC)cc3nc2s1
  -20.4%	-14.3%
- CCOC(=O)c1ccccc1NC(=O)Cn1c2ncccc2c(=O)n1-c1ccccc1
  -31.5%	-7.5%
- COc1cc(NC(=O)COCc2cc(-c3ccc4c(c3)OCO4)on2)cc(OC)c1
  -7.3%	-10.4%
- COc1cccc(N2CC(NC(=O)C3CCCCC3)CC2=O)c1 (centres undefined)
  1.9%	-16.9%
- COc1ccccc1N1CCN(C(=O)Cn2c(=O)n3nc(-c4ccc(C)cc4)nc3c3ccccc32)CC1
  -12.0%	15.4%
- O=C(Cn1c(-c2cccs2)cc2ccccc21)N1CCN(c2ccc(Cl)cc2)CC1
  24.3%	-10.0%
- O=C(NCC(c1cccnc1)N1CCc2ccccc21)c1cccc(Br)c1 (centres undefined)
  u	u
- O=C(NC1CC(=O)N(c2cccc(F)c2)C1)C1CC1 (centres undefined)
  17.6%	-1.2%
- CC(=O)c1ccc(NC(=O)COCc2cc(-c3ccc(F)cc3)on2)cc1
  -9.4%	-4.4%
- Cc1ccc(S(=O)(=O)NCc2nc3nc(C)cc(C)n3n2)cc1
  -5.1%	12.6%
- Cn1c(=O)n(C/C=C/c2ccccc2)c(=O)c2c1nc1n2CCN1c1ccc(Cl)cc1
  6.5%	3.8%
- Cc1ccc(Cn2c(=O)n(-c3ccc(C)c(C)c3)c(=O)c3c(C)c(C)sc32)cc1
  u	-18.3%
- O=C(NCc1ccc2c(c1)CCN2C(=O)c1ccccc1)c1ccco1
  -8.0%	-12.5%
- Cc1c(NC(=O)c2cc(-c3ccc(F)cc3)on2)c(=O)n(-c2ccccc2)n1C
  25.2%	-4.3%
- Cc1ccc(-c2nnc(SCC(=O)NCc3ccccc3)nc2-c2ccc(C)cc2)cc1
  u	u
- COc1cc(NC(=O)CN2CCN(CC(=O)Nc3ccc(F)cc3)CC2)cc(OC)c1
  -2.8%	-4.1%
- CC(=O)n1nc(-c2cccnc2)nc1NCc1ccc(F)cc1
  4.9%	-18.3%
- CCOC(=O)c1cc(-c2ccccc2)n(CC(=O)Nc2ccccc2OCC)c1C
  -25.9%	-4.7%
- Cc1ccc(Cl)cc1-n1ncc2c(N3CCC(C(N)=O)CC3)ncnc21
  4.2%	-30.7%
- Cc1c(C(=O)NCc2ccc(N(C)C)cc2)oc2c1-c1nn(Cc3cccc(Cl)c3)cc1CC2
  -91.4%	u
- CCC(Sc1nncn2c1cc1oc(C)cc12)C(=O)Nc1ccc(F)cc1 (centres undefined)
  u	-1.0%
- COc1ccc(S(=O)(=O)c2cnc(SCC(=O)Nc3cc(F)ccc3C)[nH]c2=O)cc1Cl
  -71.8%	-8.9%
- CCCCCCc1cc2cc(-c3nnc(-c4ccc(C)cc4)o3)c(=O)oc2cc1O
  2.3%	-13.8%
- CCN(CC)CCNC(=O)c1cc2c(=O)[nH]c3ccc(C)cc3c2s1
  u	-28.5%
- O=C(O)CN(CCN(CC(=O)O)CC(=O)O)CCN(CC(=O)O)CC(=O)O
  x	-7.6%[25.2 µM]
- CC(=O)Nc1cccc(Nc2nc3ccccc3n3c(C)nnc23)c1
  u	81.2%[activator]
- O=C(COc1ccc(F)cc1)Nc1nnc(S(=O)(=O)N2CCc3ccccc32)s1
  u	u

4 of these compounds, reformatted:
canonical_smiles: CC(=O)c1ccc(NC(=O)COCc2cc(-c3ccc(F)cc3)on2)cc1
  PMP22 txn = -9.4%
  HTT prom inh = -4.4%
canonical_smiles: Cc1ccc(S(=O)(=O)NCc2nc3nc(C)cc(C)n3n2)cc1
  PMP22 txn = -5.1%
  HTT prom inh = 12.6%
canonical_smiles: Cn1c(=O)n(C/C=C/c2ccccc2)c(=O)c2c1nc1n2CCN1c1ccc(Cl)cc1
  PMP22 txn = 6.5%
  HTT prom inh = 3.8%
canonical_smiles: Cc1ccc(Cn2c(=O)n(-c3ccc(C)c(C)c3)c(=O)c3c(C)c(C)sc32)cc1
  PMP22 txn = u
  HTT prom inh = -18.3%

Other entries
The line under a structure holds: PMP22 txn	HTT prom inh
- CCS(=O)(=O)N1CC(=O)N(c2cccc(Cl)c2C)C(C)(C(=O)NC2CCCCC2)C1 (centres undefined)
  -24.7%	-7.2%
- O=C(NC1CCCc2ccccc21)c1ccc2c(c1)sc1nc(-c3ccccc3)cn12 (centres undefined)
  -54.7%	-4.7%
- O=C(NCc1cccc(Br)c1)C1CCN(C(=O)c2sccc2-n2cccc2)CC1
  u	u
- Cc1ccc(NC(=O)CN2C(=O)COc3ccc(S(=O)(=O)N4CCCCC4)cc32)cc1N(C)C
  -18.2%	-6.3%
- CCOc1ccccc1CNc1ncnc2onc(-c3ccc(F)cc3)c12
  -22.7%	-17.4%
- CCCNc1ccc(-c2nc(-c3ccccn3)no2)cc1[N+](=O)[O-]
  -11.0%	53.5%[activator]
- Cc1ccc(S(=O)(=O)N2CCCc3cc(NS(=O)(=O)c4ccc(F)c(C)c4)ccc32)cc1
  u	25.1µM*
- Cc1ccc(C)c(NC(=O)c2cc(S(=O)(=O)N3CCCCCC3)ccc2F)c1
  -15.3%	-23.0%
- Cc1ccc(-n2c(SCc3ccccc3C)nc3[nH]ncc3c2=O)cc1C
  u	-17.6%
- Cc1ccc(C)c(NC(=O)CSc2c3c(nc4ccc(Cl)cc24)CCCC3)c1
  15µM*	-11.1%
- Cc1ccc(C)c(-n2c(CCC(=O)O)ccc2-c2ccc(Cl)cc2)c1
  10.8%	-22.7%
- CCC(=O)N1CCc2cc(Br)cc(S(=O)(=O)CCC(=O)NCc3ccc(C)cc3)c21
  21.6%	-8.8%
- CCC(C)NC(=O)CCc1c(C)nc2cc(-c3ccc(OC)cc3OC)nn2c1C (centres undefined)
  u	-9.0%
- Cc1ccc(-c2cn3c(n2)sc2cc(C(=O)NC4CCCCCC4)ccc23)cc1
  -18.9%	22.8%
- COc1cccc(C(=O)NCc2cn3ccccc3n2)c1
  -4.4%	3.1%
- Cc1ccc(Nc2c(-c3ccc(N4CCOCC4)cc3)nc3ccc(C)cn23)cc1
  -5.9%	-5.7%
- CCN(CC)S(=O)(=O)c1nnc(NC(=O)c2ccccc2Cl)s1
  u	-3.2%
- CCOc1ccc(CNC(=O)C2CCCN(c3nc4c(C)cc(C)cc4s3)C2)cc1 (centres undefined)
  u	25.1%
- CCc1cccc(NC(=O)CC2Oc3ccc(C)cc3NC2=O)c1 (centres undefined)
  -5.0%	-8.9%
- CCc1c(C)c2ccc(O)c(CN3CCN(c4ccccc4)CC3)c2oc1=O
  u	-0.9%
- O=C(NCC(c1ccccc1)c1ccccc1)c1nn(-c2ccccc2Cl)nc1CO
  1.2%	u
- COc1cc(NC(=O)c2nc3nc(C)cc(C(F)F)n3n2)c(OC)cc1Cl
  7.3%	-5.5%
- CSc1cccc(NC(=O)CN(C)S(=O)(=O)c2ccc3c(c2)n(C)c(=O)c(=O)n3C)c1
  7.4%	-23.0%
- CN(C)C(=O)c1ccc(NC(=O)Cn2nnnc2-c2ccccc2F)cc1
  -7.6%	-11.5%
- COc1ccc(Cl)cc1NC(=O)NCC1CCN(Cc2ccccc2F)CC1
  u	u
- CC(=O)CC(c1ccc([N+](=O)[O-])cc1)c1c(O)c2ccccc2oc1=O (centres undefined)
  x	-5.2%
- Cc1ccc(C)c(N2CCN(C(=O)Cn3c(C)c4cnn(-c5ccccc5)c(=O)c4c3C)CC2)c1
  u	u
- COc1ccc(NC(=O)c2sc3nc(-c4cc5cccc(OC)c5oc4=O)[nH]c(=O)c3c2C)cc1
  -14.8%	-11.9%
- CC(C)c1ccc(NC(=O)CSC2=Nc3ccccc3C3=NC(CC(=O)NCc4ccc(F)cc4)C(=O)N23)cc1 (centres undefined)
  6.8%	u
- Cc1cccc(N2C(=O)N(Cc3cc(=O)n4ccccc4n3)c3ccccc3S2(=O)=O)c1
  u	-15.3%
- Nc1ncn([C@H]2C[C@H](O)[C@@H](CO)O2)c(=O)n1
  x	-10.6%&-5.3%
- COc1ccc(-c2noc(-c3cccnc3NCc3ccco3)n2)cc1
  -25.8%	69.6%[activator]
- COc1ccc(C)cc1NS(=O)(=O)c1cc2c3c(c1)CC(=O)N3CCC2
  -9.7%	-12.0%
- Clc1ccc(-c2csc(-c3nc(-c4ccc(Br)s4)cs3)n2)cc1
  u	-5.9%
- CCc1ccc(NC(=O)CSc2ccc(-c3ccccn3)nn2)cc1
  -58.0%	u
- Cc1cccc(CC(=O)Nc2ccc3nc(N4CCC(C)CC4)cc(C)c3c2)c1
  -63.9%	-28.0%
- COCCCNC(=O)C1CCCN(S(=O)(=O)c2ccc3c(c2)oc(=O)n3C)C1 (centres undefined)
  1.0%	-18.2%
- Cc1c(Cl)cccc1NC(=O)C(=O)NCC(c1cccnc1)N1CCN(c2ccccc2)CC1 (centres undefined)
  u	u
- Cc1cc(C)cc(-n2nnc(-c3nsc(NC(=O)c4ccccc4Cl)n3)c2C)c1
  -28.4%	-13.0%
- CN1CCN(C(CNC(=O)c2ccc(F)cc2)c2ccc3c(c2)OCO3)CC1 (centres undefined)
  u	-2.2%
- CCOC(=O)CC(NC(=O)CCc1c(C)nc2c(c1C)c(=O)n(C)c(=O)n2C)c1ccc(OCC)c(OC)c1 (centres undefined)
  -39.3%	13.7%
- Cc1noc(/C=C/c2cccs2)c1S(=O)(=O)N1CCC(C(=O)NCc2ccccc2Cl)CC1
  -17.7%	-22.3%
- Cc1ccc(-n2c(=O)c3c(c4cc(C)ccc4n3C)n(CC(=O)c3ccc(Cl)cc3)c2=O)cc1
  -40.1%	-5.6%
- CC1CCN(S(=O)(=O)c2cc(C(=O)NCc3ccc(N(C)C)cc3)n(C)c2)CC1
  u	-25.6%
- Cc1cc(C)cc(C(=O)Nc2cccc(-c3nc4ncccc4o3)c2C)c1
  8.6%	13.1%
- C=Cc1ccc(CSc2nc(-c3ccc(C)cc3)nc3c2Cc2c(CO)cnc(C)c2O3)cc1
  u	-11.7%
- COc1ccc(/C=C\c2onc(C)c2S(=O)(=O)N2CCC(C(=O)Nc3ccccc3OC)CC2)cc1
  -15.7%	u
- CCCOc1ccc(C(=O)Nc2ccc(NC(=O)c3ccc(Br)cc3)cc2)cc1
  -1.4%	-2.7%
- CCOC(=O)[C@H]1O[C@H]1C(=O)N[C@@H](CC(C)C)C(=O)NCCC(C)C
  x	-9.6%
- Cc1cc(C)cc(-n2c(SCC(=O)NC3CCCCC3)nc3c([nH]c4ccccc43)c2=O)c1
  u	-8.6%
- COc1cc(C2C(C(=O)Nc3ccccc3)=C(C)Nc3nc(SCc4ccccc4F)nn32)cc(OC)c1OC (centres undefined)
  0.4%	-18.2%
- CCCN(CCC)C(=O)CSc1nc2sc3c(c2c(=O)n1-c1ccccc1)CCN(C(C)=O)C3
  -24.4%	-3.1%
- COc1ccc(C[C@@H](C)[C@@H](C)Cc2ccc(OC)c(OC)c2)cc1OC
  x	u
- COc1ccc(S(=O)(=O)N(C)Cc2nc(-c3cccc(C)c3)no2)cc1
  -26.8%	-21.4%
- CCOC(=O)Cn1c(=O)cc(-c2ccccc2)c2c(C)nn(C)c21
  -26.7%	0.0%
- CCc1ccccc1NC(=O)C1CCCN(S(=O)(=O)c2ccc3[nH]c(=O)ccc3c2)C1 (centres undefined)
  -31.1%	-14.0%
- CCOc1ccc(NC(=O)Cn2c(=O)cc(C)c3c(C)nn(-c4cccc(Cl)c4C)c32)cc1
  -12.2%	-1.2%
- COc1ccccc1CNC(=O)C1CCCN(c2nnc(C)c3c(C)n(-c4ccccc4)nc23)C1 (centres undefined)
  u	-4.6%
- Cc1ccc(NC(=O)C2CCC(CNS(=O)(=O)c3ccc4c(c3)CCCC(=O)N4)CC2)cc1F (centres undefined)
  -10.4%	u
- Cc1ccc(N2C(=O)C(CC(=O)Nc3ccc(F)cc3)N(CCC3=CCCCC3)C2=O)cc1 (centres undefined)
  u	u

Next section.
The line under a structure holds: PMP22 txn	HTT prom inh
- COc1ccccc1CNC(=O)Cn1c(-c2ccc(F)cc2)cc(C(C)=O)c1C
  -26.2%	-13.7%
- COc1ccccc1CNC(=O)CCc1c(C)nc2cc(-c3ccccc3OC)nn2c1C
  9.4%	u
- CCOc1ccc(C2c3[nH]c4ccccc4c3CCN2C(=O)CSCc2ccc(F)cc2)cc1 (centres undefined)
  7.7%	u
- CCCC(CCC)C(=O)Nc1cccc(-c2nc3cccnc3s2)c1C
  u	-10.1%
- Cc1cc(C)cc(NC(=O)CSc2nnc(-c3cc4occc4n3C)n2-c2ccccc2C)c1
  26.2%	u
- N#C/C(=C\c1c(Oc2ccc(Br)cc2)nc2ccccn2c1=O)c1nc2ccccc2s1
  -112.5%	11.3%
- CCOC(=O)c1ccccc1NC1(c2ccc(OC)cc2)C(=O)c2ccccc2C1=O
  -104.7%	-20.0%

Assay outcomes as filed in PubChem.
